Screens: PubChem, Broad Institute
Env fusion inh – blocks HIV Env-driven cell-cell fusion. HeLa-JRFL Env/CEM21 cell fusion, luciferase. inhibition, % at 12.3 µM. 1.1% of 360,000 active;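 active means mean replicate inhibition score of at least 50 and every replicate individually at or above 50; inconclusive means only one of the two criteria met; inactive means mean below 50 and not all replicates reaching 50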;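 further: 0% = plate neutral controls and 100% = maraviroc near 300 nM; one replicate is shown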
Active calls of the source: *; u = inconclusive; [ ] = another dose, or the depositor's remark. Only part of the results is shown, so the mix of outcomes need not match the whole.

SMILES	Env fusion inh
C[C@@H]1CN([C@@H](C)CO)C(=O)c2ccccc2-c2ccccc2CO[C@H]1CN(C)S(=O)(=O)c1cccc(C#N)c1	42[16.7 µM]
CCc1nc(N2[C@H](C#N)[C@@H](c3ccccc3-c3ccccc3C)[C@H]2CO)sc1C	6[16.7 µM]
COc1ccccc1CNC(=O)C[C@@H]1CC[C@@H]2[C@@H](COc3ccc(NS(=O)(=O)c4ccc(C)cc4)cc3C(=O)N2C)O1	-16[16.7 µM]
CN1c2ccc(C3=CCCCC3)cc2[C@H]2[C@H](CCN2C(=O)C2CCCCC2)[C@@H]1CO	27[16.7 µM]
COC(=O)C1(N2CC3=C[C@@H]([C@@H](O)Cc4ccccc4)n4c(=O)n(C)c(=O)n4[C@@H]3[C@@H](C3CC3)O2)CCCC1	0[16.7 µM]
C[C@@H]1CN([C@@H](C)CO)C(=O)c2cc(C#CC3CC3)cnc2O[C@@H]1CN(C)C(=O)C1CCCCC1	-5[16.7 µM]
C[C@@H]1CN([C@H](C)CO)S(=O)(=O)c2ccc(C3=CCCC3)cc2O[C@@H]1CN(C)C(=O)c1ccc(F)cc1	4[16.7 µM]
C[C@@H]1CN([C@@H](C)CO)C(=O)Cc2cc(NS(=O)(=O)c3ccc(F)cc3)ccc2O[C@@H]1CN(C)Cc1ccc(-c2ccccc2)cc1	-3[16.7 µM]
CO[C@H]1CN(C)C(=O)c2cc(NC(=O)C3CCOCC3)ccc2OC[C@H](C)N(Cc2cccnc2)C[C@@H]1C	9[16.7 µM]
C[C@H]1CN([C@@H](C)CO)C(=O)c2cc(NC(=O)Nc3ccc(C(F)(F)F)cc3)ccc2O[C@H]1CN(C)S(=O)(=O)c1ccccc1	u
C/C=C/c1ccc2c(c1)O[C@@H](CN(C)C(=O)Cc1cccnc1)[C@H](C)CN([C@@H](C)CO)S2(=O)=O	-18[16.7 µM]
COC(=O)c1cc(=O)n(Cc2ccco2)c(=Nc2ccccc2)s1	-53
COc1ccc2c3c([nH]c2c1)[C@@H](CO)N(Cc1ccccc1)CC31CCN(S(=O)(=O)c2ccc(C)cc2)CC1	4[16.7 µM]
C[C@H](CO)N1C[C@H](C)[C@H](CN(C)Cc2cccc(O)c2)OCc2cnnn2CCCC1=O	1[16.7 µM]
COc1cccc(NC(=O)N(C)C[C@@H]2OCc3ccccc3-c3ccccc3C(=O)N([C@@H](C)CO)C[C@@H]2C)c1	2[16.7 µM]
C[C@@H]1CCCCO[C@@H](CN(C)C(=O)CCC(F)(F)F)[C@H](C)CN([C@H](C)CO)C(=O)c2cc(NS(=O)(=O)c3ccc(Cl)cc3)ccc2O1	-8[16.7 µM]
CO[C@@H]1CN(C)C(=O)c2cc(NC(=O)NC(C)C)ccc2OC[C@H](C)N(CCC(F)(F)F)C[C@H]1C	5[16.7 µM]
O=C(O)C[C@@H]1CC[C@H]2[C@@H](COC[C@H](O)CN2S(=O)(=O)c2ccc(Oc3ccccc3)cc2)O1	-6[16.7 µM]
O=C(C[C@H]1C[C@@H]2c3cc(NC(=O)c4cccnc4)ccc3O[C@@H]2[C@@H](CO)O1)NCCc1ccccc1	36[16.7 µM]
COc1ccc(NC(=O)Nc2ccc3c(c2)C(=O)N([C@@H](C)CO)C[C@@H](C)[C@@H](CN(C)CC2CC2)OCCCC[C@@H](C)O3)cc1	1[16.7 µM]
CCCCCCC12C(=Cc3cc4c(cc31)OCCO4)c1cc(OC)c(OC)cc1C(CC(=O)NCc1ccccc1)N2C(=O)OC (stereo unspecified)	19
COc1ccc(NC(=O)N(C)C[C@H]2Oc3cc(-c4cccc(C(=O)N(C)C)c4)ccc3S(=O)(=O)N([C@H](C)CO)C[C@H]2C)cc1	3[16.7 µM]
O=C(NC1CCCC1)N1CC(=O)N2[C@H](CO)[C@@H](c3ccc(-c4cccc(F)c4)cc3)[C@H]2C1	-18[16.7 µM]
COc1ccc2c3c(n(C)c2c1)[C@H](CO)N(C(=O)c1ccc(F)cc1)CC31CN(C(=O)c2ccc(F)cc2)C1	-2[16.7 µM]
Nc1ncnc2c1ncn2[C@@H]1O[C@H](C(=O)N[C@@H](CCc2ccccc2)C(=O)N2CCCN(Cc3cccs3)CC2)[C@@H](O)[C@H]1O	3
O=C(C[C@@H]1CC[C@@H]2[C@H](COC[C@H](O)CN2Cc2cccc(F)c2)O1)NCc1ccncc1	-17[16.7 µM]
O=C(C[C@@H]1C[C@H]2c3cc(NC(=O)C4CCOCC4)ccc3O[C@H]2[C@@H](CO)O1)NCCN1CCCCC1	-8[16.7 µM]
COC(=O)[C@]12C[C@H](CC(=O)N3CCCCC3)C(=O)N(Cc3ccccc3)C1=C[C@H](C(C)(C)C)O[C@@H]2C	-24
COCC(=O)N1[C@@H]2Cn3c(ccc(-c4ccccc4)c3=O)[C@H]1[C@@H](C(=O)NCc1ccccn1)[C@@H]2CO	10[16.7 µM]
COCCNC(=O)c1cc2c(c(-c3cccc(-c4cccc(F)c4)c3)n1)[C@H](CCO)N(S(=O)C(C)(C)C)C2 (stereo partly specified)	6[16.7 µM]
Cc1ccccc1S(=O)(=O)Nc1ccc2c(c1)C(=O)N(C)[C@H]1CC[C@@H](CC(=O)O)O[C@H]1CO2	9[16.7 µM]
CCNC(=O)N1CCN(c2ccc(N3CCN(C(=O)NCC)[C@@H](C)C3)c(C)c2)[C@H](C)C1	-9
C[C@@H](NC(=O)C[C@@H]1C[C@H]2c3cc(NC(=O)c4ccc5c(c4)OCO5)ccc3O[C@H]2[C@@H](CO)O1)c1ccccc1	17[16.7 µM]
C[C@H](CO)N1C[C@H](C)[C@H](CN(C)Cc2ccncc2)Oc2ccc(NC(=O)CCN3CCOCC3)cc2CC1=O	-2[16.7 µM]
CCC(=O)Nc1ccc2c(c1)C(=O)N(C)C[C@H](OC)[C@@H](C)CN(C(=O)CC)[C@H](C)CO2	6[16.7 µM]
COc1ccccc1C(=O)Nc1ccc2c(c1)C(=O)N(C)[C@H]1CC[C@H](CC(=O)Nc3cc(F)ccc3F)O[C@@H]1CO2	10[16.7 µM]
C[C@H](NC(=O)C[C@@H]1CC[C@H]2[C@@H](COC[C@@H](O)CN2C(=O)Nc2cccc(Cl)c2)O1)c1ccccc1	21[16.7 µM]
COc1ccc(CN(C)C[C@@H]2Oc3ccc(NS(=O)(=O)c4c(C)noc4C)cc3CC(=O)N([C@@H](C)CO)C[C@H]2C)cc1	-6[16.7 µM]
CCN(CC)CCNC(=O)c1ccc(NCN2C(=O)NC(c3ccccc3)(c3ccccc3)C2=O)cc1	14
O=C(N[C@@H]1CC[C@@H](CCNS(=O)(=O)c2ccc(Cl)cc2)O[C@@H]1CO)c1ccccn1	-5[16.7 µM]

An excerpt from above in order of molar mass, rising.
SMILES	Env fusion inh
CCNC(=O)N1CCN(c2ccc(N3CCN(C(=O)NCC)[C@@H](C)C3)c(C)c2)[C@H](C)C1	-9
CCC(=O)Nc1ccc2c(c1)C(=O)N(C)C[C@H](OC)[C@@H](C)CN(C(=O)CC)[C@H](C)CO2	6[16.7 µM]
O=C(NC1CCCC1)N1CC(=O)N2[C@H](CO)[C@@H](c3ccc(-c4cccc(F)c4)cc3)[C@H]2C1	-18[16.7 µM]
O=C(C[C@@H]1CC[C@@H]2[C@H](COC[C@H](O)CN2Cc2cccc(F)c2)O1)NCc1ccncc1	-17[16.7 µM]
O=C(N[C@@H]1CC[C@@H](CCNS(=O)(=O)c2ccc(Cl)cc2)O[C@@H]1CO)c1ccccn1	-5[16.7 µM]
COC(=O)[C@]12C[C@H](CC(=O)N3CCCCC3)C(=O)N(Cc3ccccc3)C1=C[C@H](C(C)(C)C)O[C@@H]2C	-24
C[C@@H](NC(=O)C[C@@H]1C[C@H]2c3cc(NC(=O)c4ccc5c(c4)OCO5)ccc3O[C@H]2[C@@H](CO)O1)c1ccccc1	17[16.7 µM]
COc1ccc(CN(C)C[C@@H]2Oc3ccc(NS(=O)(=O)c4c(C)noc4C)cc3CC(=O)N([C@@H](C)CO)C[C@H]2C)cc1	-6[16.7 µM]
COc1ccc(NC(=O)N(C)C[C@H]2Oc3cc(-c4cccc(C(=O)N(C)C)c4)ccc3S(=O)(=O)N([C@H](C)CO)C[C@H]2C)cc1	3[16.7 µM]
CCCCCCC12C(=Cc3cc4c(cc31)OCCO4)c1cc(OC)c(OC)cc1C(CC(=O)NCc1ccccc1)N2C(=O)OC (stereo unspecified)	19

Additional records.
SMILES	Env fusion inh
CN1CCN(C(=O)C[C@@H]2CC[C@@H]3[C@H](COC[C@H](O)CN3C(=O)Nc3ccc(F)cc3)O2)CC1	12[16.7 µM]
O=C(C[C@H]1C[C@H]2c3cc(NS(=O)(=O)c4ccc(F)cc4)ccc3O[C@H]2[C@@H](CO)O1)NCc1cccnc1	18[16.7 µM]
CN1CCN(C(=O)C[C@H]2CC[C@@H](NC(=O)c3ccc4c(c3)OCO4)[C@H](CO)O2)CC1	-2[16.7 µM]
CC(C)NC(=O)N(C)C[C@H]1OCCCC[C@H](C)Oc2ccc(NC(=O)CCCN(C)C)cc2C(=O)N([C@H](C)CO)C[C@@H]1C	-6[16.7 µM]
O=C(C[C@@H]1CC[C@@H](NC(=O)c2cccc(F)c2)[C@H](CO)O1)NCCN1CCCC1	-15[16.7 µM]
Cc1noc(C)c1NC(=O)Nc1cccc2c1O[C@H](CN(C)S(=O)(=O)c1ccccc1)[C@@H](C)CN([C@@H](C)CO)C2=O	-17[16.7 µM]
COc1ccc(S(=O)(=O)N(C)C[C@@H]2Oc3c(NC(=O)Nc4ccc(F)cc4)cccc3C(=O)N([C@H](C)CO)C[C@H]2C)cc1	4[16.7 µM]
C[C@H]1NS(=O)(=O)c2cccc(Cl)c2O[C@@H]1c1ccccc1	-12
CC(C)NC(=O)Nc1ccc2c(c1)C(=O)N([C@H](C)CO)C[C@@H](C)[C@@H](CN(C)C(=O)Nc1ccccc1)OCCCC[C@@H](C)O2	u
CNC(=O)C[C@H]1CC[C@@H]2[C@@H](COc3ccc(NC(=O)c4cc(F)cc(F)c4)cc3C(=O)N2C)O1	2[16.7 µM]
Cc1noc(C)c1S(=O)(=O)N(C)C[C@@H]1Oc2ccc(NS(=O)(=O)c3ccc(F)cc3)cc2CC(=O)N([C@@H](C)CO)C[C@@H]1C	7[16.7 µM]
CCCNC(=O)N1CC2(CCN(C(=O)CC3CC3)CC2)c2c(n(C)c3cc(OC)ccc23)[C@@H]1CO	8[16.7 µM]
CC1(C)CC(=O)C=C(c2ccccc2-c2ccc3c(c2)OCO3)C1=O	12
CNC[C@@H]1OCCCC[C@H](C)Oc2ccc(NC(=O)Nc3ccc4c(c3)OCO4)cc2C(=O)N([C@H](C)CO)C[C@H]1C	-15[16.7 µM]
CN1C(=O)c2cc(NC(=O)c3ccc(Cl)cc3)ccc2OC[C@H]2O[C@H](CC(=O)O)CC[C@H]21	10[16.7 µM]
C[C@@H]1CN([C@H](C)CO)C(=O)c2cc(/C=C/c3ccccc3)cnc2O[C@H]1CN(C)C(=O)C1CC1	-16[16.7 µM]
CC(C)COC(=O)N(C)C[C@@H]1OCc2ccccc2-c2c(n(C)c3ccccc23)C(=O)N([C@@H](C)CO)C[C@@H]1C	47[16.7 µM]
COCC(=O)N(C)C[C@@H]1Oc2cc(C#CC3CCCC3)ccc2S(=O)(=O)N([C@H](C)CO)C[C@@H]1C	22[16.7 µM]
O=C([C@H]1[C@H](CO)[C@H]2Cn3c(cccc3=O)[C@H]2N1Cc1cc(F)ccc1F)N1CCOCC1	1[16.7 µM]
CO[C@H]1CN(C)C(=O)c2cc(NC(=O)c3ccc(Oc4ccccc4)cc3)ccc2OC[C@@H](C)NC[C@H]1C	-9[16.7 µM]
CC(C)C[C@H]1COCc2cn(nn2)CC[C@H](C)C(=O)N1	-2[16.7 µM]
CC=Cc1ccc2n(c1=O)C[C@H]1[C@H](CO)[C@@H](C(=O)N[C@@H](C)c3ccccc3)[C@@H]2N1CC (mixture of isomers)	-7[16.7 µM]
COCc1[nH]nc2c1C(c1cccc(C(F)(F)F)c1)NC2=O (stereo unspecified)	-45
COc1ccc2c3c(n(C)c2c1)[C@@H](CO)N(Cc1ccccc1)CC31CCN(S(C)(=O)=O)CC1	7[16.7 µM]
CO[C@@H]1CN(C)C(=O)c2ccc(NC(=O)C3CCOCC3)cc2OC[C@@H](C)N(C)C[C@@H]1C	-21[16.7 µM]
COc1ccc(C#Cc2ccc3c(c2)O[C@H](CN(C)C(=O)CN2CCOCC2)[C@@H](C)CN([C@H](C)CO)S3(=O)=O)cc1	-3[16.7 µM]
CCN=C1NC(c2ccccc2C(F)(F)F)C(C(=O)OC)=C(C)N1C (stereo unspecified)	-61
CO[C@@H]1CN(C)C(=O)c2ccc(NC(=O)Nc3ccccc3F)cc2OC[C@@H](C)N(CC2CC2)C[C@H]1C	-3[16.7 µM]
C[C@@H]1COc2cccc(N3CCCCC3)c2S(=O)(=O)N1	29
C[C@@H]1CN([C@@H](C)CO)C(=O)CCCn2nncc2CO[C@@H]1CN(C)Cc1ccc2cccnc2c1	-24[16.7 µM]
C[C@@H]1CN([C@@H](C)CO)C(=O)c2cc(C#Cc3ccccc3F)cnc2O[C@H]1CN(C)C(=O)C1CCCCC1	19[16.7 µM]
C[C@@H]1CN([C@@H](C)CO)C(=O)Cc2cc(NC(=O)c3ccncc3)ccc2O[C@H]1CN(C)Cc1ccc(C(=O)O)cc1	-13[16.7 µM]
COc1ccc(S(=O)(=O)N(C)C[C@H]2Oc3ccc(NS(=O)(=O)c4ccc(F)cc4)cc3CC(=O)N([C@@H](C)CO)C[C@@H]2C)cc1	1[16.7 µM]
CCCNC(=O)C[C@H]1CC[C@H]2[C@@H](COC[C@@H](O)CN2S(=O)(=O)c2ccc(Oc3ccccc3)cc2)O1	-1[16.7 µM]
CCNC(=O)C[C@H]1CC[C@H]2[C@@H](COC[C@H](O)CN2Cc2ccncc2)O1	12[16.7 µM]
CC(C)NC(=O)Nc1ccc2c(c1)C(=O)N([C@@H](C)CO)C[C@@H](C)[C@@H](CN(C)CC1CCCCC1)OCCCC[C@H](C)O2	15[16.7 µM]
